GALR2 agonist = GALR2 receptor agonists, primary screen, cell-based; GALR2-expressing cells, agonist activation read-out; actives 0.48% (n = 140,000); activation, %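 (tested at 5 µM)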; AID 803, 2007; Galanin receptor type 2 (Homo sapiens), O43603;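 active = above mean plus 3 SD of all compounds, about 5% in these data, not always enough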;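 note: 0% = vehicle buffer wells and 100% = reference agonist at full effect; tested in CHO reporter cells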
PKD1 inh = inhibitors of human PKD1 kinase, biochemical, fluorescence polarization. inhibition, %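 (about 10 µM by stock and volumes)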. PKD1 kinase fluorescence polarization assay. actives 0.056% (n = 200,000). AID 797, 2007;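 active = inhibition of 50% or more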;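 note: controls were vehicle for no effect and a reference inhibitor for full effect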
Target sequence (Q15139 whole entry, looked up): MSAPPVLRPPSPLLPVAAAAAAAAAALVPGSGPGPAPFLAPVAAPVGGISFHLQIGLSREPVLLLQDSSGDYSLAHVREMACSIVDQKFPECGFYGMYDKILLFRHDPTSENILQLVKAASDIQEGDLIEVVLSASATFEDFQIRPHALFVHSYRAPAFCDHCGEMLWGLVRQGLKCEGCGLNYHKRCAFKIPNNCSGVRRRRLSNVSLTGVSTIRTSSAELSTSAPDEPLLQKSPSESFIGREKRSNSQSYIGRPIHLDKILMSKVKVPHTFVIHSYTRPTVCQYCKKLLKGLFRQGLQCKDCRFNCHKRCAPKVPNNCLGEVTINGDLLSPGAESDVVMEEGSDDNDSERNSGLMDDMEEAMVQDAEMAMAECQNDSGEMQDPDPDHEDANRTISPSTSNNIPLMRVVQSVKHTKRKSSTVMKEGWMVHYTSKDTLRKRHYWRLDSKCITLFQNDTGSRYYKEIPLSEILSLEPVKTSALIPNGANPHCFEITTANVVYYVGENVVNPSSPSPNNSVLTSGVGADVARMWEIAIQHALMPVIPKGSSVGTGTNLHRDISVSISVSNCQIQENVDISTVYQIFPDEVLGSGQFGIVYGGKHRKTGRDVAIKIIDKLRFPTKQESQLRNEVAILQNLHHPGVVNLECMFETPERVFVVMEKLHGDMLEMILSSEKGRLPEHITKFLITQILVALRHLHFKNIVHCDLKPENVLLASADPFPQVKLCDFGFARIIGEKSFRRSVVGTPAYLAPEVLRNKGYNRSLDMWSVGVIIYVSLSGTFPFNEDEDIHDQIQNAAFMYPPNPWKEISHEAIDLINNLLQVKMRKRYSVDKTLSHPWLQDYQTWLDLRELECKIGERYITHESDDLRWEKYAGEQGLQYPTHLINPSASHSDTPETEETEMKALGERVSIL
Insulin prom inh = inhibitors of insulin promoter-driven GFP, primary screen, imaging, TRM-6 cells (human fetal islet line), eGFP reporter, cell count. actives 0.9% (n = 130,000). reporter expression induced with tamoxifen. inhibition, % at 2 µM. AID 1273, 2008;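 active = inhibition above the mean plus 3 SD, with well images judged a real hit on visual review, cut at about 60% in these data, passing the limit was not always enough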
RGS16-Gao HTS = modulators of RGS16 binding to Galphao, primary screen, biochemical, human proteins, multiplexed bead flow cytometry; Regulator of G-protein signaling 16 (Homo sapiens) + Guanine nucleotide-binding protein …; bead-based flow cytometry RGS16-Galphao binding, fluorescence; actives lie on both sides; binding response (% of control), % at 10 µM; actives 0.38% (n = 220,000);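 active = below 25% or above 175%, edge rows of some plates excepted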;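 note: Galphao activated by GDP with aluminum fluoride before binding; 100% = wells without compound and 0% = beads without RGS; some results beyond the cut were filed as inactive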
HSV augment = enhancers of HSV replication in host cells, fold increase, host cell viability | AID 1956, 2009 | maximum fold increase | actives 0.005% (n = 220,000) | HSV replication augmentation in cells;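 active = peak rise of 1.5-fold or more in the series; tested in PC3 cells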;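 note: first round at 10 µM; read as green reporter fluorescence; hits show the peak of a series up to 25 µM; 1 = signal of infected wells without compound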
Insulin prom inh cell count = also measured in Insulin prom inh; calls as there; normalized cell count, %; measured here: cell count, toxicity; reference of the scale not given here;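 cells exposed to compound for 48 h; stained nuclei by imaging scaled within each plate; lower means fewer cells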
HSV augment primary fold = recorded beside HSV augment, whose call it bears; fold increase; compound at 10 µM; measured here: primary screen fold increase 10 uM; tested in PC3 cells;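 GFP signal in the first replicate; 1 = infected wells without compound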
The depositor's hits bear a star; i = inactive; · = no result given.

SMILES	GALR2 agonist	PKD1 inh	Insulin prom inh	Insulin prom inh cell count	RGS16-Gao HTS	HSV augment	HSV augment primary fold
Cc1nn(C)c(C(=O)Nc2ccc(Cn3cccn3)cc2)c1[N+](=O)[O-]	-1.9	-6	9	143	98	·	·
O=C1/C(=C/c2ccncc2)SC(=S)N1Cc1ccccc1	·	·	·	·	82	i	0.78
CS(=O)(=O)c1nc2ccccc2n1Cc1ccccc1	-1.0	10	14	105	·	i	1.1
O=C(COC(=O)c1cncc(Br)c1)NC1CCCCC1	·	-8	-11	103	72	i	1
COC(=O)c1ccccc1NC(=O)Nc1cc(C)ccn1	·	8	42	77	95	i	1
O=S(=O)(Cc1ccccc1)Cc1cnc(Cl)s1	·	4	·	·	98	i	0.84
Cc1ccc(S(=O)(=O)NNC(=O)c2ccncc2)cc1	-1.2	-6	-27	57	92	i	0.93
CCN1CCN(C(=S)Nc2ccc(Cl)c(Cl)c2)CC1	-0.3	-2	10	127	100	i	0.97
COc1ccc(NC(=O)COC(=O)c2ccc(OCc3ccc(Cl)cc3Cl)c(OC)c2)c(OC)c1	0.2	3	·	·	103	i	1.1
CCN(CC)C(=O)/C(=C\c1ccncc1)NC(=O)c1ccccc1	·	-7	·	·	107	i	1
O=C1CC(c2ccccc2)Cc2nc(N3CCc4ccccc43)ncc21 (stereo not drawn)	-2.2	-8	-8	90	·	i	0.77
CCN(CC(=O)NCc1cccs1)S(=O)(=O)c1ccc(NC(C)=O)cc1	·	-6	·	·	100	i	1
COc1ccc(N(CC(=O)NCc2ccc(C)cc2)S(=O)(=O)c2c(C)nn(C)c2C)cc1	-0.5	-3	-67	91	49	i	0.84
CN1CCCc2cc(C#N)c(=O)[nH]c21	-0.7	-3	5	152	107	i	1
O=C(Nc1ccc(Cl)cc1)C1CC2CCCC(C1)C2=O (stereo not drawn)	-0.6	-7	-17	82	108	i	0.83
O=C(NCCC1=CCCCC1)C(=O)NCC1OCCCN1S(=O)(=O)c1cc(F)ccc1F (stereo not drawn)	·	12	-64	156	112	i	0.9
COc1ccccc1C1CC(c2c(-c3ccccc3)c3cc(Cl)ccc3[nH]c2=O)=NN1S(C)(=O)=O (stereo not drawn)	2.1	-3	28	138	100	i	0.67
COC(=O)c1cc2occc2n1CC(=O)Nc1ccc(OC)c(OC)c1	-1.4	-15	·	·	90	i	0.86
CCN(CCNc1ccc(Cl)cc1[N+](=O)[O-])C(=O)c1cc([N+](=O)[O-])c(N(C)C)cc1OC	-2.0	-24	·	·	97	i	1
O=C(OCCCCN1C(=O)c2ccccc2C1=O)c1ccc(Br)o1	-3.3	9	79*	101*	57	i	0.45
COC(=O)c1ccccc1NC(=S)N(Cc1ccc2c(c1)OCO2)Cc1cc2ccc(C)cc2[nH]c1=O	-0.3	-9	0	121	107	i	0.83
Cc1ccccc1S(=O)(=O)/N=C(/c1ccccc1)N1CCOCC1	·	0	·	·	110	i	1
CC1=CC2=NC(=O)/C(=C/c3cccs3)C(=N)N2O1	·	·	·	·	99	i	1
CCCNC(=O)CCCCn1c(=S)[nH]c2c([nH]c3ccc(OC)cc32)c1=O	·	2	·	·	102	i	0.93
C[C@]1(C(=O)NCc2cc(F)cc(C(F)(F)F)c2)C=C[C@@H](Cc2ccccc2)N1C(=O)c1ccccc1	-2.6	-10	-52	124	107	i	0.88
CC(C)[C@@H](C(=O)N1CCNCC1)n1cc(CCO)nn1	·	-4	·	·	97	i	1
CN(C)/C=C/c1onc(-c2c(Cl)cccc2Cl)c1C#N	·	2	-164	53	114	i	1.1
CCN1CCN(Cc2ccc(NC(=O)c3ccc(C)c(NC(=O)c4c[nH]c5cc(C(F)(F)F)ccc5c4=O)c3)cc2C(F)(F)F)CC1	·	·	·	·	106	i	0.66
CC1=NNC(=O)C1C(c1ccccc1)C1C(=O)NN=C1C (stereo not drawn)	·	-4	50	141	106	i	0.98
S=c1[nH]nc(NCCCN2CCOCC2)s1	·	·	·	·	98	i	1.1
C=CCn1c(SCC(=O)Nc2cccc(C)c2)nnc1-c1cnccn1	-1.3	1	·	·	96	i	0.9
COc1ccccc1CNC(=O)/C=C/c1ccc(S(=O)(=O)N2CCOCC2)cc1	·	0	·	·	100	i	0.9
COC(=O)c1ccc(C(C(=O)NC2CCCCC2)N(CCc2ccccc2)C(=O)Cc2cccs2)cc1 (stereo not drawn)	-1.0	-1	0	162	98	i	0.95
CCOC(=O)N1CCC(NC(=O)C2CCN(C(=O)c3cc4oc(C)cc4n3Cc3c(F)cccc3Cl)CC2)CC1	·	0	5	106	99	i	1.2
CCOC(=O)COc1ccc2c(c1)C(=O)CC1(CCN(C(C)=O)CC1)O2	-0.6	-17	·	·	100	i	1.1
COc1ccc(/C=N/n2c(C)nnc2C)c(OC)c1	-1.4	-4	·	·	96	i	1
CC(C)c1csc(CN2CCC(N3CCC(C(=O)NCC4CCCO4)CC3)CC2)n1 (stereo not drawn)	·	3	·	·	109	i	1.1
O=C(Cc1ccccc1Cl)N1CCN(c2ncccn2)CC1	·	4	42	103	112	i	0.96
CC(=O)N1CCc2cc(S(=O)(=O)NCCC(=O)N3CCN(c4ccccn4)CC3)ccc21	-0.3	3	·	·	101	i	1.1
CS(=O)(=O)Nc1ccc(C2=NN(S(C)(=O)=O)C(c3ccc4nccnc4c3)C2)cc1 (stereo not drawn)	·	4	·	·	67	i	0.78

Some of the entries above, reformatted:
CCN1CCN(Cc2ccc(NC(=O)c3ccc(C)c(NC(=O)c4c[nH]c5cc(C(F)(F)F)ccc5c4=O)c3)cc2C(F)(F)F)CC1
  GALR2 agonist: ·
  PKD1 inh: ·
  Insulin prom inh: ·
  Insulin prom inh cell count: ·
  RGS16-Gao HTS: 106
  HSV augment: i
  HSV augment primary fold: 0.66
CC1=NNC(=O)C1C(c1ccccc1)C1C(=O)NN=C1C (stereo not drawn)
  GALR2 agonist: ·
  PKD1 inh: -4
  Insulin prom inh: 50
  Insulin prom inh cell count: 141
  RGS16-Gao HTS: 106
  HSV augment: i
  HSV augment primary fold: 0.98

The listing picks up; the six compounds before the break are reprinted first.
SMILES	GALR2 agonist	PKD1 inh	Insulin prom inh	Insulin prom inh cell count	RGS16-Gao HTS	HSV augment	HSV augment primary fold
CCOC(=O)COc1ccc2c(c1)C(=O)CC1(CCN(C(C)=O)CC1)O2	-0.6	-17	·	·	100	i	1.1
COc1ccc(/C=N/n2c(C)nnc2C)c(OC)c1	-1.4	-4	·	·	96	i	1
CC(C)c1csc(CN2CCC(N3CCC(C(=O)NCC4CCCO4)CC3)CC2)n1 (stereo not drawn)	·	3	·	·	109	i	1.1
O=C(Cc1ccccc1Cl)N1CCN(c2ncccn2)CC1	·	4	42	103	112	i	0.96
CC(=O)N1CCc2cc(S(=O)(=O)NCCC(=O)N3CCN(c4ccccn4)CC3)ccc21	-0.3	3	·	·	101	i	1.1
CS(=O)(=O)Nc1ccc(C2=NN(S(C)(=O)=O)C(c3ccc4nccnc4c3)C2)cc1 (stereo not drawn)	·	4	·	·	67	i	0.78
COc1ccc(NS(=O)(=O)c2ccc(S(=O)(=O)N3CCCC3)cc2)cc1Cl	-1.2	-6	·	·	98	i	0.98
COc1ccc2cc(/C=N/NC(=O)CN(c3ccccc3)S(=O)(=O)c3ccccc3)c(Cl)nc2c1	6.5*	0	-58	98	117	i	0.88
CCCS(=O)(=O)N1CCC(C(=O)N2CCc3ccccc3C2)CC1	-0.8	-9	-3	85	96	i	0.93
C/C(=N\NC(N)=S)C1(C)CCCCC1	-1.2	-5	14	103	93	i	0.98
Clc1cccc(/C=N/Nc2nnc(Cl)c3ccccc23)c1	-1.2	-5	-9	100	109	i	0.83
Cn1c(O)c(C2=c3ccccc3=NC2=O)[nH]c1=S	-0.1	0	-54	1	89	i	0.88
Cc1oc(-c2cccc(Cl)c2)nc1CN1CCC(C(=O)NCCCN2CCCC2=O)CC1	-3.6	7	·	·	108	i	1
COc1ccc2c(c1)c1ncn(Cc3ccc(F)cc3)c(=O)c1n2C	·	·	·	·	100	i	0.97
CCOC(=O)CSc1nc(C)c(CC)c(C)c1C(N)=O	·	-12	·	·	101	i	0.88
CC(C1CC1)N(Cc1ccccc1)C(=O)NC(=O)c1cccc(F)c1 (stereo not drawn)	·	-1	·	·	105	i	0.92
O=C(Nc1cccc(F)c1)C1CCN(c2nnnn2-c2ccccc2)CC1	-1.9	2	·	·	108	i	0.86
N/C(COc1cccc(C(F)(F)F)c1)=N\NC(=O)c1cccnc1Oc1ccccc1	-2.0	0	-37	59	114	i	1
Cc1onc(-c2ccccc2Cl)c1C(=O)NCCN1Cc2ccccc2C1=O	-1.3	-4	·	·	77	i	0.88
Cc1ccc(C(=O)NCCCC(=O)O)o1	-1.3	5	·	·	116	i	1
O=C(CNC(=O)c1cccs1)OCC(=O)c1ccc2ccccc2c1	-0.7	4	-19	111	99	i	0.89
Cc1cc(C)n2cc(CSc3nc4ccccc4[nH]3)nc2n1	0.0	1	·	·	96	i	1
COc1ccc(C2CC(c3ccc(Br)cc3)=NN2C(=S)Nc2ccccc2)cc1 (stereo not drawn)	·	-5	·	·	27	i	1
COc1cc(NC(=O)c2ccco2)c(OC)cc1NC(=O)Nc1ccc(Cl)cc1	-0.2	5	·	·	108	i	0.74
CC(=O)Nc1ccc(OS(=O)(=O)c2ccc(C(C)(C)C)cc2)cc1	·	3	·	·	100	i	0.98
COc1cc(NC(=O)c2ccc3c(c2)OCO3)ccc1NC(=O)c1ccco1	-0.8	-4	62	94	112	i	0.91
O=C(CSc1n[nH]c(-c2cccnc2)n1)OC1CCCCC1	·	-8	-8	93	90	i	0.99
COc1ccc2sc3ccccc3c(=O)c2c1	2.7	13	·	·	96	i	0.91
O=C(COC(=O)CNC(=O)c1ccccc1)Nc1nc(-c2ccccc2)cs1	0.0	-6	·	·	105	i	0.97
Cc1c(O)c2cccnc2[nH]c1=O	-2.6	-17	-12	70	110	i	1
O=C(c1ccccc1)c1ccccc1C(=O)N1CCCC1	-1.2	-5	·	·	102	i	1
COCCN(C(=S)Nc1ccc(OC)cc1)C1CCN(C(C)=O)CC1	-0.5	-12	-56	129	97	i	0.97
O=C(OCC1OC2OC3(CCCCC3)OC2C2OC3(CCCCC3)OC12)c1ccccc1 (stereo not drawn)	-1.9	-5	-25	135	98	i	1
CS(=O)(=O)NCCCCCCNS(C)(=O)=O	·	-5	29	74	110	i	0.99
O=C(Cn1ccccc1=O)c1ccc(Cl)cc1	·	-11	-14	68	103	i	0.92
COC(=O)c1cccc(NC(=O)Nc2ccc(Cl)cc2)c1	·	·	·	·	103	i	0.97
CN(c1ccc(OCC(=O)OCC(=O)NCc2ccco2)cc1)S(=O)(=O)c1ccc2ccccc2c1	·	-2	·	·	91	i	1
COc1ccc(C)cc1S(=O)(=O)Nc1ccccc1	-1.3	5	10	128	116	i	0.97
Cc1onc(-c2c(Cl)cccc2Cl)c1C(=O)N1CCCc2ccccc21	-1.2	3	3	157	103	i	0.84
CCOc1ccc2[nH]c3c(N4CCN(c5ccccn5)CC4)ncnc3c2c1	1.2	-6	88*	111*	110	i	0.61
CCOC(=O)c1ccc(NC(=O)CSc2nnc(CNc3ccc(OC)cc3)n2C)cc1	-0.8	4	·	·	98	i	1
CCc1cc(C(=O)NCCN(C)C)cs1	-1.8	-3	59	96	107	i	0.92
CCCS(=O)(=O)N1CCCC(C(=O)NCC2CCCO2)C1 (stereo not drawn)	-1.2	7	·	·	97	i	0.98
N#C/C(=N\Nc1ccc(S(=O)(=O)N2CCc3ccccc32)cc1)C(N)=S	·	-2	·	·	96	i	0.8
COc1cc(/C=C2\S/C(=N/S(=O)(=O)Cc3ccccc3)NC2=O)c([N+](=O)[O-])cc1OC	·	·	·	·	99	i	1.3
O=C(NCC1CCCO1)/C(=C\c1cccc([N+](=O)[O-])c1)NC(=O)c1ccccc1 (stereo not drawn)	·	4	41	84	100	i	0.91
CN(CC(=O)N1CCc2[nH]c3ccc(F)cc3c2C1)CC1OCCO1	-1.3	-8	42	111	103	i	1.1
Cc1sc2ncnc(SCC(=O)c3ccc(Cl)s3)c2c1C	-2.7	-9	35	93	101	·	·
CCCCCCC(=O)Nc1c(O)c2ccccc2[nH]c1=O	-1.4	5	33	59	102	i	1
Cc1ccc(C2(C(F)(F)F)NC(=O)N3CCN=C3S2)cc1 (stereo not drawn)	-0.2	1	62	156	95	i	0.93
COc1ccc(NC(=O)CSc2nc(NS(=O)(=O)c3ccc(C)cc3)cc(=O)[nH]2)cc1	-1.3	-5	-17	113	89	i	0.87
O=C(Nc1cccc(F)c1)c1cccnc1N1CCOCC1	-0.4	-8	·	·	101	i	1.3
COc1cc(NC(=O)c2cccs2)cc(OC)c1	-1.8	-12	-16	100	98	i	1
Cn1cccc1C(=O)c1cccc([N+](=O)[O-])c1	·	7	·	·	101	i	1.1

High-throughput results as filed in PubChem BioAssay.
